Assay outcomes deposited in PubChem by several laboratories.
MT1-MMP reporter = MT1-MMP gene expression reporter suppression – cell-based, luciferase reporter, luminescence (AID 618). actives 0.62% (n = 87,000). calls from a first round at 10 µM; hits with a dose series show EC50 in µM. MT1-MMP promoter luciferase reporter cells, luminescence;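 active = over half of the reporter light lost at 10 µM or EC50 under 50 µM; inactive = the rest and hits that failed the dose series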;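 note: actives suppress MT1-MMP promoter-driven transcription so potencies describe inhibitors; HT1080 fibrosarcoma cells; overnight exposure; toxic or luciferase-blocking compounds were not removed from the actives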
WNV protease inh = blocks West Nile virus NS2B-NS3 protease activity; actives 0.18% (n = 65,000); WNV NS2B-NS3 protease, fluorogenic substrate Ex360/Em465; hits give low values; P06935; AID 577; z-score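 (tested at a level between 10 and 100 µM)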;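 active = z-score at -3 or under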;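 note: score is relative to mean and spread of the compound wells of a plate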
Target sequence (P06935 1371-1501 limits assumed): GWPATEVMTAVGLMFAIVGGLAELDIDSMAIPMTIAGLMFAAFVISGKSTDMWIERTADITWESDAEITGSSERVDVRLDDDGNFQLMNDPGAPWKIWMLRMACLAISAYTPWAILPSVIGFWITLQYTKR
Target sequence (P06935 1502-1679 limits assumed): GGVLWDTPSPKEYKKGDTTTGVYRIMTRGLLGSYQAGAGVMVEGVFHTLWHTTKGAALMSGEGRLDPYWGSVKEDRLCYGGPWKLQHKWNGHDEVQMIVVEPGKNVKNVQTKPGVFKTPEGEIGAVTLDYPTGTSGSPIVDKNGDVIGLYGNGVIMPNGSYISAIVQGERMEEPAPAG
Hsc70 ATP site = Hsc70 inhibitors, probe displacement, primary screen, biochemical, fluorescence polarization (AID 568); Hsc70 fluorescence polarization, probe displacement; higher % means a stronger effect; strong numbers were not always called active; one-dose displacement, % at 20 µM; IC50 in µM for titrated hits; 83,000 tested, under 10 active;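 active = displacement above 50% without optical interference and an IC50 on retest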;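 note: ATPase domain with a fluorescein-tagged ATP probe; 0% = vehicle and 100% = excess ADP; read after one hour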
Numbers without * were called inactive; i = inactive; x = no result given.

SMILES	MT1-MMP reporter	WNV protease inh	Hsc70 ATP site
COc1cc2c(C#N)c(N3CCN(c4ccccc4OC)CC3)nc(N)c2c(N)n1	i	-0.36	5.3%
CCOC(=O)CSc1nnc(CNC(=O)c2cccs2)n1Cc1ccccc1	i	0.62	7.4%
CCOC(=O)c1sc(NC(=O)c2ccc(S(=O)(=O)N(C)C)cc2)nc1C	i	x	1.7%
CCOC(=O)c1sc2ncnc(N3CCN(C(=O)OCC)CC3)c2c1C	i	1.5	-1.2%
Cc1ccc(NC(=O)C(C)Sc2nnc(-c3cccnc3)o2)cc1 (centres undefined)	i	0.03	-2.0%
CN1CCN(c2nc(Nc3cccc(C(F)(F)F)c3)nc(N3CCOCC3)n2)CC1	i	-0.16	-0.2%
O=C1CC(N2CCN(c3ccccc3F)CC2)C(=O)N1c1ccc(F)cc1 (centres undefined)	i	x	6.0%
COc1ccc(OCC(O)CN2C(=O)c3ccccc3S2(=O)=O)cc1 (centres undefined)	i	0.07	0.2%
COc1ccc(-c2nn3c(COc4ccccc4)nnc3s2)cc1OC	i	1.7	3.4%
O=C(NCCCCNC(=O)c1c(F)c(F)c(F)c(F)c1F)c1c(F)c(F)c(F)c(F)c1F	i	0.14	-3.2%
Cc1csc(SCC(=O)c2c(N)n(CC(C)C)c(=O)n(C)c2=O)n1	i	x	0.7%
CCCCN(C(=O)Cn1nnc2ccccc21)C(C(=O)NCc1ccco1)c1ccncc1 (centres undefined)	i	-0.21	0.0%
CC1CCC2(CC1)NC(=O)N(CC(=O)NC(=O)NC1CCCC1)C2=O (centres undefined)	i	-1.1	-1.9%
Cc1cc(C(=O)Nc2ccccc2N2CCOCC2)c2ccccc2n1	i	x	-0.7%
CCCC(=O)Nc1cc(OC)c(NC(=O)NC2CCCCC2)cc1OC	i	1.1	-1.2%
COc1ccc(C(=O)NCC(=O)N2CCC(C)CC2)cc1OC	i	x	-1.6%
CC(=O)N1c2ccccc2NC(=O)C1(C)C	i	x	3.4%
Cc1ccc2nc(-c3cccnc3)oc2c1	i	-1.1	-0.7%
COc1ccc(CCNc2cc(-c3ccccc3)nc3ncnn23)cc1	i	x	1.8%
Cc1csc(-c2coc3cc(O)cc(C)c3c2=O)n1	i	0.48	1.6%
N#Cc1ccccc1Sc1ccccc1C(=O)N1CCOCC1	i	-0.27	-1.6%
CCOc1cccc(/C(O)=C2/C(=O)C(=O)N(Cc3ccco3)C2c2ccncc2)c1 (centres undefined)	i	-0.09	2.3%
Cc1ccc(SC(C)C(=O)Nc2cccc(N(C)S(C)(=O)=O)c2)cc1 (centres undefined)	i	x	0.5%
CN(CC(=O)Nc1ccncc1)S(=O)(=O)c1ccc(Cl)cc1	i	0.18	6.1%
CCOC(=O)c1cnc(SCC(=O)c2ccccc2)nc1N	i	-0.52	-0.8%
O=C(O)CN1C(=O)C2(OCCCO2)c2ccccc21	i	0.31	-6.9%
CCOC(=O)N=S(=O)(Oc1ccc([N+](=O)[O-])cc1)c1ccccc1 (centres undefined)	i	x	2.1%
O=C(COc1ccc(S(=O)(=O)NCc2ccccc2)cc1Cl)NCC1CCCO1 (centres undefined)	i	x	1.9%
CCOc1cc(C(=O)OCC(=O)c2c[nH]c3ccccc23)ccc1OCC(=O)N1CCOCC1	i	x	-2.1%
O=C(c1cccnc1)N1CCc2ccccc2C1	i	-0.31	0.8%

Overlap with the part before: five entries, then new ones.
SMILES	MT1-MMP reporter	WNV protease inh	Hsc70 ATP site
O=C(O)CN1C(=O)C2(OCCCO2)c2ccccc21	i	0.31	-6.9%
CCOC(=O)N=S(=O)(Oc1ccc([N+](=O)[O-])cc1)c1ccccc1 (centres undefined)	i	x	2.1%
O=C(COc1ccc(S(=O)(=O)NCc2ccccc2)cc1Cl)NCC1CCCO1 (centres undefined)	i	x	1.9%
CCOc1cc(C(=O)OCC(=O)c2c[nH]c3ccccc23)ccc1OCC(=O)N1CCOCC1	i	x	-2.1%
O=C(c1cccnc1)N1CCc2ccccc2C1	i	-0.31	0.8%
CCOc1ccc2[nH]c(=O)c(=O)[nH]c2c1	i	-0.58	18%
Nc1ccc(CCc2nc3ccccc3o2)cc1	i	-0.6	-3.6%
CN1C(=O)c2cccc3c(S(=O)(=O)Nc4ccccn4)ccc1c23	i	0.47	-2.0%
O=C1NC2(C=Cc3c(ccc4ccccc34)O2)Oc2ccccc21 (centres undefined)	i	x	1.2%
Cc1ccc2[nH]c3c(c2c1)CN(C(=O)CN1CC(C)OC(C)C1)CC3 (centres undefined)	i	-0.49	25%
O=C(c1ccc(Cn2cc(Br)cn2)cc1)N1CCN(c2ccccc2)CC1	i	-0.59	2.1%
N#CCCCSc1nnc(-c2ccccn2)o1	i	-0.19	-0.3%
NS(=O)(=O)c1ccc(NS(=O)(=O)c2cccs2)cc1	i	-0.36	-0.7%
O=C(NC1CCCCC1)C1CCCN1S(=O)(=O)c1cccc2nsnc12 (centres undefined)	i	0.85	0.9%
CCCCOc1ccc(-c2ncc(Cl)cn2)cc1	i	1.8	-0.3%
CCC(C)NC(=O)C1CCN(S(=O)(=O)c2cccc3cccnc23)CC1 (centres undefined)	i	-0.42	0.7%
FC(F)(F)c1cccc(N2CCN(c3ccc4nnc(-c5ccccc5)n4n3)CC2)c1	i	-1.1	-12%
COc1cc2cc(CN(CCCO)S(=O)(=O)c3ccccc3Cl)c(=O)[nH]c2cc1OC	i	-0.3	3.7%
O=C(COC(=O)c1cccnc1)c1ccc(Cl)cc1	i	1.2	-2.0%
COc1cccc(-n2c(=O)[nH]cc(C(=O)Nc3ccc4c(c3)OCCO4)c2=O)c1	i	-1.1	-6.2%
CCOC(=O)C1CCN(S(=O)(=O)c2cccc(-c3cn4cc(Cl)ccc4n3)c2)CC1	i	x	-2.3%
O=C(Cn1cnc2c(nnn2Cc2ccccc2)c1=O)NCC1CCCO1 (centres undefined)	i	-0.13	1.5%
c1coc(-c2nc3ccccc3nc2-c2ccco2)c1	i	1.5	-4.0%
O=C(NC1CCCCCCC1)c1ccccc1O	i	1.2	-6.6%
CCOc1ccc(CC2CC(=O)NC2=O)cc1 (centres undefined)	i	-0.1	5.2%

For convenience, two of the compounds above.
SMILES	MT1-MMP reporter	WNV protease inh	Hsc70 ATP site
CCC(C)NC(=O)C1CCN(S(=O)(=O)c2cccc3cccnc23)CC1 (centres undefined)	i	-0.42	0.7%
FC(F)(F)c1cccc(N2CCN(c3ccc4nnc(-c5ccccc5)n4n3)CC2)c1	i	-1.1	-12%

In the list so far, 5 have an NH in an aromatic ring.
SMILES	MT1-MMP reporter	WNV protease inh	Hsc70 ATP site
CCOc1cc(C(=O)OCC(=O)c2c[nH]c3ccccc23)ccc1OCC(=O)N1CCOCC1	i	x	-2.1%
CCOc1ccc2[nH]c(=O)c(=O)[nH]c2c1	i	-0.58	18%
Cc1ccc2[nH]c3c(c2c1)CN(C(=O)CN1CC(C)OC(C)C1)CC3 (centres undefined)	i	-0.49	25%
COc1cc2cc(CN(CCCO)S(=O)(=O)c3ccccc3Cl)c(=O)[nH]c2cc1OC	i	-0.3	3.7%
COc1cccc(-n2c(=O)[nH]cc(C(=O)Nc3ccc4c(c3)OCCO4)c2=O)c1	i	-1.1	-6.2%

(more compounds)
SMILES	MT1-MMP reporter	WNV protease inh	Hsc70 ATP site
CCN1C(=O)NC2=C(C(=O)c3ccccc32)C1c1ccccc1F (centres undefined)	i	x	4.4%
CCOC(=O)N1CCN(S(=O)(=O)c2ccc3[nH]cc(C(=O)O)c(=O)c3c2)CC1	i	1.4	2.4%
COCCCNC(=O)CN(c1ccc(Cl)c(Cl)c1)S(C)(=O)=O	i	-1.2	-1.0%
Clc1ccc(OCc2nn3c(-c4ccccc4)nnc3s2)c(Cl)c1	i	-1.1	0.8%
COc1ccc(C(=O)NCC(=O)OC2CCCCC2=O)cc1 (centres undefined)	i	0.64	-1.1%
CCCS(=O)(=O)N1CCCC(C(=O)NCCCN2CCN(c3cccc(Cl)c3)CC2)C1 (centres undefined)	i	-1.4	-2.7%
O=C(O)c1ccc(NS(=O)(=O)c2cccc3nsnc23)cc1	i	0.29	-6.5%
COc1ccc(OC)c(S(=O)(=O)NCc2csc(-c3ccccc3)n2)c1	i	-0.08	-3.0%
COC(=O)CN(Cc1ccccc1)S(=O)(=O)c1ccc(OC)c(OC)c1	i	-1.2	2.5%
S=c1[nH]nc(-c2ccc(Br)cc2)n1Cc1ccco1	i	0.27	-6.8%
COc1ccc(OC)c(NC(=O)c2cc(S(=O)(=O)NCc3ccco3)ccc2F)c1	i	-0.39	2.1%
COCCNC(=O)CN(c1ccc(OC)c(OC)c1)S(=O)(=O)c1ccc(C)cc1	i	1.2	-1.2%
CCOc1ccccc1Oc1ccc(C(F)(F)F)cn1	i	-0.73	3.7%
CC1CCCC(C)N1/N=C/c1ccc(Cl)cc1 (centres undefined)	i	x	-0.4%
O=C(O)CCc1n[nH]c(=S)[nH]c1=O	i	-1.1	-0.3%
CCOC(=O)c1c(N)nn(C(=O)C(C)(C)C)c1-c1ccccc1	i	0.63	0.5%
CCOc1ccc(NC(=O)CSc2nnc(-c3ccoc3C)n2CC2CCCO2)cc1 (centres undefined)	i	x	9.3%
Cc1ccc(CNC(=O)c2nnn(-c3cccc(C)c3)c2N)cc1	i	0.3	-8.0%
CN(C)S(=O)(=O)c1ccc(C(=O)OCC(=O)NC(=O)NCc2ccccc2)cc1	i	-1.3	-3.3%
CC(=O)NCCC(=O)Nc1ccc(F)cc1C	i	x	0.7%
O=C(Nc1c2c(nn1-c1ccc(Cl)cc1)CS(=O)(=O)C2)c1ccc2c(c1)OCO2	i	-0.96	-2.2%
O=C(Nc1ccccn1)NC1CCS(=O)(=O)C1 (centres undefined)	i	0.71	2.8%
CC1=CC(C)(C)NC(=S)N1c1ccccc1	i	x	-2.3%
COc1ccc(OC)c(S(=O)(=O)N(C)CC(=O)Nc2ccccc2OC)c1	i	0.18	2.0%
CCCn1c(C)cc(C(=O)COc2ncnc3sccc23)c1C	i	0.8	-5.0%
OCCN1CCN(CC(O)COCc2ccc3c(c2)OCO3)CC1 (centres undefined)	i	x	3.5%
CC1(C)Cc2c(c(-c3ccco3)[nH]c(=O)c2C#N)CS1	i	0.11	14%
C=CCOc1ccc(CNn2nnnc2N)cc1	i	x	2.7%
O=C(c1cc2ccccc2oc1=O)N(Cc1cccs1)Cc1ccccc1Cl	i	x	-0.8%
CCOC(=O)N1CCN(S(=O)(=O)c2ccc(F)c(C(=O)Nc3cccc(C)c3C)c2)CC1	i	-0.78	2.8%
COc1ccc(OC)c(NC(=O)C(CCS(C)(=O)=O)NC(C)=O)c1 (centres undefined)	i	-0.8	1.3%
O=C(CSc1nnc(-c2ccccc2)o1)N1CCOCC1	i	-0.87	-5.0%
Cc1ccc(Nc2nc(N)nc(CN3CCc4ccccc4C3)n2)cc1	i	x	3.5%
CCn1nc(C(=O)N2CCN(Cc3ccc4c(c3)OCO4)CC2)c2ccccc2c1=O	i	-0.46	0.5%
CCCNC(=S)Nc1ccc(Nc2ccccc2)cc1	i	x	0.3%
Cn1c(=O)[nH]c(=O)c2c1nc(SCC(O)CO)n2Cc1ccccc1Cl (centres undefined)	i	-0.09	0.3%
O=C(NCc1cccs1)C1CC(c2ccccc2O)=NO1 (centres undefined)	i	-0.94	1.6%
N#Cc1c(N)nc(SCC(=O)NCCc2ccccc2)c(C#N)c1-c1cccs1	i	0.32	-8.8%
CCCCN(CCCC)C(=O)CSc1nnc(-c2cc(OC)c(OC)c(OC)c2)o1	i	-0.33	-1.0%
CCOC(=O)c1nnn(-c2nonc2N)c1CNC(C)C	i	0.67	-3.2%
O=C(Oc1cccc2cccnc12)c1ccc(Br)o1	i	2.2	1.5%
CC(C)C1C(C#N)=C(N)Oc2n[nH]c(C(C)(C)C)c21 (centres undefined)	i	-0.15	-0.1%
COC(=O)c1c(N(S(C)(=O)=O)S(C)(=O)=O)sc2c1CCN(c1ncc(C(F)(F)F)cc1Cl)C2	i	x	0.8%
CCOC(=O)N1CCC(N2CCN(S(=O)(=O)c3ccc(NC(C)=O)cc3)CC2)CC1	i	1.1	-2.1%
CC(C)CC(N=C1NC(C)(C)Cc2ccccc21)C(=O)O (centres undefined)	i	x	3.1%
CCCC(=O)c1ccc(N2CCN(C(=O)OCC)CC2)c(F)c1	i	-0.82	-6.6%
CCN1CCN(Cc2nc3c(c(=O)[nH]c(=O)n3C)n2Cc2ccccc2Cl)CC1	i	-0.07	0.5%
Cn1c(=O)c2c(nc(CN3CCc4ccccc4C3)n2Cc2ccc(F)cc2)n(C)c1=O	i	-1.1	-0.8%
COc1ccc(/C(=N\O)c2ncc(C(F)(F)F)cc2Cl)cc1	i	x	4.6%
COc1cccc(Cn2c(NCC(C)C)nc3c2c(=O)n(C)c(=O)n3C)c1	i	0.29	1.6%
Next section:
SMILES	MT1-MMP reporter	WNV protease inh	Hsc70 ATP site
CCCCn1c(SCC(=O)Nc2cc(C)on2)nc2c1c(=O)n(C)c(=O)n2C	i	-0.29	-2.7%
CC1CCCC(C)N1C(=O)CSc1nnc(CSc2ncccn2)n1C (centres undefined)	i	-0.37	5.0%
CCOc1ccc(C(=O)NCc2ccncc2)cc1	i	0.04	0.9%
CCSc1nnc([C@H](Cc2ccccc2)NC(=O)OC(C)(C)C)o1	i	x	4.6%
CC(C)(C)n1nc2c(c1NC(=O)c1ccco1)CS(=O)C2 (centres undefined)	i	-0.83	-4.3%
COc1ccc(C(=O)CSc2nnc(-c3ccccc3)o2)cc1	i	1.1	-1.0%
CCSc1nnc(-c2cccc(S(=O)(=O)N(CC)CC)c2)n1Cc1ccccc1	i	-0.17	7.5%
CCN(CC)c1ccc(C=N/C(C#N)=C(\N)C#N)cc1	i	0.3	-8.0%
